Source: PubChem
NPYLR7 ag: agonists of mosquito NPYLR7 receptor, primary screen, cell-based, Aedes aegypti, calcium fluorescence, mosquito biting behavior | HEK293T NPYLR7/Galpha15, GCaMP6s calcium fluorescence | hit rate 0.15% among 270,000 | activation, % at 10 µM; in the data active = activation above about 40%;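 also: 0% = vehicle and 100% = reference agonist at the receptor; some compounds past the cut are filed as inactive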
NPYLR7 ag max-min: further read-out of NPYLR7 ag, marked with its call; activation, %; measured here: Max-Min RFU normalised activation; some inactives read as strong as hits;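 span of the calcium signal over five minutes; 0% = vehicle and 100% = native peptide agonist; compound fluorescence can raise it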
Active calls of the source: *; & = joins results of further samples. These rows are one share of the data, so the mix of outcomes need not match the whole.

SMILES | NPYLR7 ag | NPYLR7 ag max-min
O=C(CCNc1nc(-c2ccccc2)nc2ccccc12)N1CCOCC1 | 3.2 | 4.1
CN1C(CC(=O)c2ccccc2)CCCC1CC(O)c1ccccc1 (configuration not stated) | -12.9&-3.4 | -18.5&-10.0
O=C(Nc1nn(Cc2ccc(C(F)(F)F)cc2)c2ccccc12)c1ccccc1 | -3.2 | 13.9
Cc1nc(C(C)C)ncc1C(=O)N[C@@H]1C[C@H]2C(=O)N(C)CC(=O)N2C1 | 6.5 | 4.7
CCN(CC)S(=O)(=O)c1ccc(OC)c(N2CCN(C(=O)/C=C/c3ccccc3)CC2)c1 | 22.5 | 21.7
CCN(CC(=O)Nc1c(Cl)cccc1Cl)C(=O)Cc1c(C)nn(C)c1C | 5.0 | 4.3
CCCCN(CC(=O)Nc1cc(-c2ccccc2)nn1-c1ccc(OC)cc1)S(=O)(=O)c1ccc(NC(C)=O)cc1 | -0.7 | 9.0
CC(Cc1ccc2ccccc2c1)NC(=O)N1CCOC(CO)C1 (configuration not stated) | -23.2 | -24.1
C1=CC2C(C1)C1CC2C2C1N=NN2c1ccccc1 (configuration not stated) | 11.5 | 9.2
CNC(=O)c1cc2c(=O)n3ccccc3nc2n1C | -0.7&-0.3 | -1.8&-1.4
O=C(C1CC1)N1CCN(c2nccc(-c3ccc(-n4ccnc4)cc3)n2)CC1 | -3.5 | 0.2
CN(C)C(=O)CN(C)C(=O)C1CC1c1ccccc1Br (configuration not stated) | -0.7 | -0.7
CCOc1ccc(NC(=NS(=O)(=O)c2ccccc2)Nc2nc(C)cc(C)n2)cc1 | 5.2 | 4.6
O=C(O)CC1(CC(=O)Nc2ccccc2O)CCCC1 | -7.2 | -7.2
CC(C)COCC(O)CN(Cc1ccc(F)cc1)Cc1cccn1C (configuration not stated) | 16.6 | 24.8
CC(C)c1ccc(NC2CCCN(C(=O)CCn3cnnn3)C2)cc1 (configuration not stated) | -5.4 | -5.1
COc1ccc2c(c1)CN(CC1CC1)C(=O)CCN2C(C)=O | 25.9 | 35.0
Nc1ncnc(Nc2ccc(F)cc2F)c1[N+](=O)[O-] | 3.5 | -0.9
Cn1nnc2c(=O)n(CC(=O)N3CCN(c4ccc(Cl)cc4)CC3)cnc21 | 1.3 | 6.9
COc1cc([N+](=O)[O-])ccc1N=Nc1c(C)[nH]n(-c2nc(-c3ccc(Cl)cc3)cs2)c1=O | 7.0 | 17.5

20 compounds from above, ordered by formula weight, rising.
SMILES | NPYLR7 ag | NPYLR7 ag max-min
C1=CC2C(C1)C1CC2C2C1N=NN2c1ccccc1 (configuration not stated) | 11.5 | 9.2
CNC(=O)c1cc2c(=O)n3ccccc3nc2n1C | -0.7&-0.3 | -1.8&-1.4
Nc1ncnc(Nc2ccc(F)cc2F)c1[N+](=O)[O-] | 3.5 | -0.9
O=C(O)CC1(CC(=O)Nc2ccccc2O)CCCC1 | -7.2 | -7.2
COc1ccc2c(c1)CN(CC1CC1)C(=O)CCN2C(C)=O | 25.9 | 35.0
CC(Cc1ccc2ccccc2c1)NC(=O)N1CCOC(CO)C1 (configuration not stated) | -23.2 | -24.1
CN1C(CC(=O)c2ccccc2)CCCC1CC(O)c1ccccc1 (configuration not stated) | -12.9&-3.4 | -18.5&-10.0
CN(C)C(=O)CN(C)C(=O)C1CC1c1ccccc1Br (configuration not stated) | -0.7 | -0.7
CC(C)c1ccc(NC2CCCN(C(=O)CCn3cnnn3)C2)cc1 (configuration not stated) | -5.4 | -5.1
Cc1nc(C(C)C)ncc1C(=O)N[C@@H]1C[C@H]2C(=O)N(C)CC(=O)N2C1 | 6.5 | 4.7
CC(C)COCC(O)CN(Cc1ccc(F)cc1)Cc1cccn1C (configuration not stated) | 16.6 | 24.8
O=C(CCNc1nc(-c2ccccc2)nc2ccccc12)N1CCOCC1 | 3.2 | 4.1
O=C(C1CC1)N1CCN(c2nccc(-c3ccc(-n4ccnc4)cc3)n2)CC1 | -3.5 | 0.2
Cn1nnc2c(=O)n(CC(=O)N3CCN(c4ccc(Cl)cc4)CC3)cnc21 | 1.3 | 6.9
O=C(Nc1nn(Cc2ccc(C(F)(F)F)cc2)c2ccccc12)c1ccccc1 | -3.2 | 13.9
CCN(CC(=O)Nc1c(Cl)cccc1Cl)C(=O)Cc1c(C)nn(C)c1C | 5.0 | 4.3
CCOc1ccc(NC(=NS(=O)(=O)c2ccccc2)Nc2nc(C)cc(C)n2)cc1 | 5.2 | 4.6
CCN(CC)S(=O)(=O)c1ccc(OC)c(N2CCN(C(=O)/C=C/c3ccccc3)CC2)c1 | 22.5 | 21.7
COc1cc([N+](=O)[O-])ccc1N=Nc1c(C)[nH]n(-c2nc(-c3ccc(Cl)cc3)cs2)c1=O | 7.0 | 17.5
CCCCN(CC(=O)Nc1cc(-c2ccccc2)nn1-c1ccc(OC)cc1)S(=O)(=O)c1ccc(NC(C)=O)cc1 | -0.7 | 9.0

Continued.
SMILES | NPYLR7 ag | NPYLR7 ag max-min
Cc1cc(S(=O)(=O)NC2CC(C)(C)NC(C)(C)C2)c(Cl)cc1Cl | -1.3 | 4.5
c1ccc(CCc2nc(C3CCOCC3)n(-c3ccccn3)n2)cc1 | -6.5 | -7.2
Cc1nnc2sc(NC(=O)c3cccs3)nn12 | 5.8 | 2.5
C=CCN=c1scc(-c2ccco2)n1N=CC1=CCC2CC1C2(C)C (configuration not stated) | 17.0 | 15.9
Cc1cc(Br)cc2c1NCCC2 | -4.8 | -10.4
COCCN1C(=O)N(C(C)C)C(=O)C12CCN(Cc1c(F)cccc1Cl)CC2 | 21.9 | 9.5
CCOC(=O)C1CCCN(C(=O)c2csc(CSc3nnc(-c4cccc(OC)c4)n3-c3ccc(C)cc3)n2)C1 (configuration not stated) | 17.7 | 19.2
Cc1ccc(C2=NOC(CNCc3ccc(F)cc3F)C2)cc1 (configuration not stated) | 3.1 | 6.7
Cc1cc(C(=O)N2CCCC(CNS(=O)(=O)c3cccs3)C2)nn1C (configuration not stated) | -1.0&-4.1 | -5.4&-5.9
N=C(N)Sc1cn(CCNC(=O)c2ccc3ccccc3c2)c2ccccc12 | -6.5 | -11.5
Brc1ccc(C2CCn3nnnc3N2)cc1 (configuration not stated) | 7.0 | 1.6
COc1ccccc1C(=O)C1CCCN(Cc2nc3ccc(F)cc3[nH]2)C1 (configuration not stated) | -1.7 | -3.8
CSc1nc(NCCN)c2sc3c(c2n1)CCCC3 | -1.0 | 7.5
Cc1nc(-c2c(C)oc3c(O)c(O)ccc3c2=O)cs1 | -2.9 | -0.7
CC(C)COC(=O)N[C@@H]1C[C@@H]2CO[C@H](c3ccccc3)C[C@@H]2C1 | 3.5 | 4.5
O=c1[nH]c(CC2CC2)nc2c1CCN(Cc1cc3n(n1)CCNC3)C2 | 7.9 | 4.7
Cc1cc(O)c(CN(C)CCN2CCOCC2)cc1C | 7.5 | 4.5
CCOC(=O)C1CCN(C(=O)c2ccc(-n3nc(-c4cccc(C(F)(F)F)c4)cc3N)cc2)CC1 | -10.2 | -19.6
CCc1ccccc1NC(=O)C(=O)N1[C@@H]2CC[C@H]1CN(C)C(=O)C2 | -7.8 | -8.4
Cc1cccc(CSc2nnc(CCC(=O)O)c(=O)[nH]2)c1 | 12.8 | 5.9
CCS(=O)(=O)c1ccc2c(c1)N(Cc1ccc(S(C)(=O)=O)cc1)C(=O)C(C)O2 (configuration not stated) | 1.8 | -0.3
Cc1nnc(C2CCCN2CCC(=O)Nc2cccc(F)c2)o1 (configuration not stated) | 6.1 | 2.8
COc1cccc(NC(=O)C2CC2(c2ccccc2)c2ccccc2)c1 (configuration not stated) | 5.3 | 4.6
CC(=O)c1c(C)cc(C)c(CS(=O)(=O)c2nccs2)c1C | 6.8 | 6.3
O=c1c(Cl)c(N2CC3CC4CC(C3)CC2C4)cnn1-c1ccc(Cl)cc1 | 13.0 | 7.0
Cc1[nH]n(-c2ccc(Cl)cc2)c(=O)c1C1=C(N2CCN(C)CC2)C(=O)N(C(C)C)C1=O | -8.0 | -5.4
COCCN1CC(CNC(=O)c2cn(Cc3ccc(Cl)cc3)nn2)CC1=O (configuration not stated) | 3.5 | 2.0
COc1cccc(NC(=O)C2(C)CCN2CCCc2ccccc2)c1 (configuration not stated) | 3.3 | 0.7
NS(=O)(=O)c1ccc(F)c(F)c1F | 6.2&0.7 | 9.8&-1.1
O=C(CSc1ncnc2c1cnn2-c1ccc(F)cc1)N1CCCCCC1 | 18.5 | 14.2
Cc1nccn1CC1(CNC2CSCCSC2)CC1 | 13.0 | 8.2
O=C(CCN1C(=O)c2ccccc2C1=O)NCCc1c[nH]c2ccccc12 | -6.3 | -6.2
Cc1ccc(-c2cc(C(=O)N3CCN(C(c4ccccc4)c4ccccc4)CC3)n(-c3ccc(Cl)cc3)n2)cc1C | 9.7 | 7.5
O=C1CCCCCCN1Cc1nc(C2CCOC2)no1 (configuration not stated) | 5.4 | 1.6
O=C1OC(c2ccc3c(c2)OCO3)=N/C1=C\c1ccccc1 | 0.1 | -5.5
CCCNC(=O)c1cc(NC(=O)Nc2ccc(OC)cc2OC)ccc1N1CCN(c2ccccc2OC)CC1 | -1.3 | 2.6
Fc1ccc(-c2[nH]ncc2CNCc2ccc(OC(F)(F)F)cc2)c(F)c1 | 22.0 | 10.6
O=C(NCCN1CCOCC1)c1csc(COc2cccc(Cl)c2)n1 | -0.7 | -10.7
O=C(CN1C(=O)CSC(c2cccc(Cl)c2)c2c(-c3ccccc3)nn(-c3ccccc3Cl)c21)NCc1ccco1 (configuration not stated) | 4.1 | 8.7
CC(C)c1ccc(NC(=O)C(C2CCCC2)N2CCN(C(=O)c3ccccc3F)CC2)cc1 (configuration not stated) | 16.2 | 19.5
COc1ccc(-c2ccc(=O)n(CCNC(=O)c3sc(-c4ccccc4)nc3C)n2)cc1 | -1.8 | -2.4
CC1CN(C(=O)CSc2nnc(-c3cccnc3)n2-c2ccccc2)CCO1 (configuration not stated) | 1.4 | 12.6
c1sc2c(c1CN1CCCCC1)CCCC2 | -0.5 | -0.6
CC(C)[C@H](N)C(=O)OCCOCn1cnc2c(=O)[nH]c(N)nc21 | -1.1&-5.9&-12.8 | -15.1&-12.7&-20.5
CC1CCN(C(=O)C2CCOC2)c2cc(Cl)ccc2S1 (configuration not stated) | 16.5 | 12.8
OCCC1CN(Cc2cn[nH]c2C2CCCCC2)CCN1Cc1cccs1 (configuration not stated) | 2.1 | -3.1
CC(C)(C)CC(NC(=O)Cn1ccnn1)c1ccc(F)cc1 (configuration not stated) | -3.7 | -4.0
COc1cc2c(cc1OC)C(O)C(C)(C)NC2 (configuration not stated) | 13.8 | 7.9
CN(Cc1nc2ccccc2s1)C(=O)CN(C)C1CCS(=O)(=O)C1 (configuration not stated) | -6.1 | -11.9
COc1cccc(C(=O)N2CCN(c3nc(-c4cccc(F)c4)nc(C)c3Cc3ccccc3)CC2)c1 | 16.4 | 20.3

Other entries follow.
SMILES | NPYLR7 ag | NPYLR7 ag max-min
CC(COCc1ccccc1)C(=O)Nc1n[nH]c(C(F)(F)F)n1 (configuration not stated) | -3.3 | 0.5
COC(=O)Cn1c(C2CC(=O)N(c3cccc(C)c3)C2)nc2ccccc21 (configuration not stated) | 3.4 | -3.4
CCOC(=O)C(C#N)C(c1ccc(C)cc1)C1CCOC(C)(CC)C1 (configuration not stated) | 5.4 | 3.1
COc1cccc(CC2CN(C3CCC3)CCO2)c1 (configuration not stated) | 14.6 | 8.2
CCOC(=O)CNC(=O)Cn1c(=O)c2c(OCC)c(C)cnc2n(C)c1=O | 2.2 | 2.9
CCOC(=O)c1cc(C#N)c(SCC(=O)N2CCCCC2C)nc1C (configuration not stated) | -4.0 | -7.0
CCSC1CCCCN(C(=O)c2cc(C(C)=O)c[nH]2)C1 (configuration not stated) | 12.4 | 2.3
Cc1cc(NC(=O)CN2CCN(C3CCc4c(Cl)cccc43)CC2)no1 (configuration not stated) | -5.2 | 735.4
NC(=O)C(Cc1ccccc1)NC(=O)c1coc(-c2ccccc2)n1 (configuration not stated) | 6.5 | 2.2
Brc1ccc(-c2nc(-c3ccc4c(c3)OCO4)cs2)cc1 | 16.8 | 12.4
CC(C)=CC(=O)NC1CCCN(Cc2ccc(Cl)cc2)C1 (configuration not stated) | 2.0 | 0.7
Oc1ccccc1-c1nc2ccc(Br)cn2c1NC1CCCCC1 | 1.2 | 4.6
COc1ccc(NC(=O)CNC(=O)CNCc2ccc(F)cc2)cc1 | 32.1 | 35.9
CCc1nc(NC2CC2)c2ccc(Cl)cc2n1 | 2.9 | 19.5
CCc1[nH]c2c(CNC(=O)NCc3ccco3)cc(F)cc2c1C | 7.3 | 3.0
Cc1cccc(NS(=O)(=O)c2c(C)n(C)c(=O)n(C)c2=O)c1 | 2.0 | 0.7
COCc1nnc(C(=O)N2CCC(N3CCCCC3)CC2)o1 | 4.5 | 0.0
O=C(NC1CCc2ccc(F)cc21)N[C@@H]1C=C[C@H](CO)C1 (some centres not stated) | 2.3 | 401.4
CC1CCCN1C(=O)c1ccc(-c2ccc3c(c2)OCO3)s1 (configuration not stated) | 3.9 | 1.7
Cc1cccn2cc(C(=O)N3CCCCC3CCc3ccccn3)nc12 (configuration not stated) | 9.3 | 4.4
COc1ccc(CC(=O)NCc2ccc(C)n2C)cc1F | 1.4 | 1.3
CN(Cc1ccc(N(C)C)cc1)C(=O)c1ccc(N2CCCC2=O)cc1 | -0.4 | -3.2
CCOC(=O)C1C(=O)C=C(c2cccs2)CC1c1ccccc1F (configuration not stated) | 24.1 | 28.8
O=C(NCCOc1ccc2nnc(-c3ccccc3)n2n1)Nc1ccc2c(c1)OCCO2 | 2.4 | -0.2
O=C1/C(=C/c2ccc([N+](=O)[O-])cc2)C=C(c2ccccc2)N1c1ccc(Cl)c(Cl)c1 | -0.9 | 7.9
O=C(CCSc1ccccc1)N1CCN(c2ccccc2[N+](=O)[O-])CC1 | 3.0 | 8.6
